Ecoli growth: E. coli growth inhibition; 330,000 tested, 0.21% active; AID 1053175; OD600 absorbance (test concentration not listed); Escherichia coli growth, OD600, 23 h; hits give low values;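 active means OD600 absorbance below the run mean of sample wells minus 3.6 SD, in any replicate, cut at about 0.56 in these data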;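 further: stock transfer was 300 nL into about 60 µL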
AF4-AF9 inh: inhibitors of human MLL-AF4/AF9 interaction; P42568; AlphaScreen, biotin-AF4 peptide binding to FLAG-AF9; 350,000 tested, 0.47% active; AID 651704; inhibition, % at 10 µM;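 active means every replicate reaching a set inhibition limit, whatever the replicate mean, cut at about 25% in these data; inconclusive means mean inhibition reaches that limit but some replicates miss it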;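 further: 0% = plate neutral control median and 100% = total signal loss; the record names both 10 and 1 µM as test concentration; the first replicate is given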
FGF22 binding: FGF22 (human) thermal shift binding | 340,000 tested, 1.5% active | calls only at 9.99 µM | recombinant FGF22 thermal shift, SYPRO orange fluorescence; percent of sucrose octasulfate shift, DMSO zero;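 active means melting point raised past a set limit in the mean and every replicate; inconclusive means no clear call; three in four hits are not shown here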
Target sequence (Q9HCT0 whole entry, looked up): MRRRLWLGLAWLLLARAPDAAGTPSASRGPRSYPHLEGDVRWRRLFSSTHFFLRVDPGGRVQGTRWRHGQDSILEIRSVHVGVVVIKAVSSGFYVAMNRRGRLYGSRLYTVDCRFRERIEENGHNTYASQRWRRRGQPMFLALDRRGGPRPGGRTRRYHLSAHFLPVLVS
UCH37 DUB inh: blocks the human deubiquitinase UCH37. inhibition, % (no concentration beside the values). AID 588478. 330,000 tested, 0.33% active. purified proteasome/UCH37, Ub-AMC cleavage fluorescence. Q9Y5K5;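 active means mean of two replicates above 20%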;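 further: 0% = compound-free wells with enzyme and 100% = wells lacking proteasome; stock transfer was 100 nL into about 20 µL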
Target sequence (Q9Y5K5 whole entry, looked up): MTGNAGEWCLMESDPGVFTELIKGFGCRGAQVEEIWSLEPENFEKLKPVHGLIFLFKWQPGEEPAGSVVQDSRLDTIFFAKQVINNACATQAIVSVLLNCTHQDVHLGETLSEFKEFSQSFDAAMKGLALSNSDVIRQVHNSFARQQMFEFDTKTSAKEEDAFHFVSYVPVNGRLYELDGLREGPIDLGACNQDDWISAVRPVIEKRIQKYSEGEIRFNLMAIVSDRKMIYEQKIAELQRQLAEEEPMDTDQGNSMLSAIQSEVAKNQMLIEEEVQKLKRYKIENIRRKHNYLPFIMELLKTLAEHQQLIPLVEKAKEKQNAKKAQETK
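Assay system: Proteasome-bound UCH37. Buffer or medium: pH 7.4 Tris-HCl (50 mM) with ovalbumin, ATP-MgCl2, DTT. Incubation: 30 min preincubation with enzyme, 25 min cleavage at room temperature. Measured by: fluorescence, ex 355 nm, em 460 nm. Read-out basis: percent inhibition. Control set: wells without proteasome as full block, compound-free enzyme plus substrate as uninhibited.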
RanGTP-Impb inh: inhibitors of RanGTP-importin-beta interaction, primary screen, biochemical, FRET, CFP-Ran, YFP-importin-beta, homogeneous. 300,000 tested, 1.1% active. inhibition, % (concentration not given with the values). AID 2216. cell-free CFP-Ran/YFP-importin-beta FRET ratio;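 active means most replicates above 15%; inconclusive means exactly half above 15%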;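 further: 0% = DMSO wells and 100% = Ran loaded with GDP instead of GTP; wells of about 40 µL received 100 nL stock; the first replicate is given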
HNF4A DNA FP: change in binding of human HNF4 alpha to DNA; P41235; HNF4a-FITC DNA binding, fluorescence polarization, 1 h; activity change, % at 10 µM; 360,000 tested, 0.3% active; AID 1224865; in the data active means activity change above about 30%, passing the limit was not always enough;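 further: controls were the assay level and a saturating level of protein; the project sought stronger binding though the title names inhibitors; some compounds called inactive have numbers as strong as hits; positive values seem to mean higher polarization but the record does not say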
Target sequence (P41235 whole entry, looked up): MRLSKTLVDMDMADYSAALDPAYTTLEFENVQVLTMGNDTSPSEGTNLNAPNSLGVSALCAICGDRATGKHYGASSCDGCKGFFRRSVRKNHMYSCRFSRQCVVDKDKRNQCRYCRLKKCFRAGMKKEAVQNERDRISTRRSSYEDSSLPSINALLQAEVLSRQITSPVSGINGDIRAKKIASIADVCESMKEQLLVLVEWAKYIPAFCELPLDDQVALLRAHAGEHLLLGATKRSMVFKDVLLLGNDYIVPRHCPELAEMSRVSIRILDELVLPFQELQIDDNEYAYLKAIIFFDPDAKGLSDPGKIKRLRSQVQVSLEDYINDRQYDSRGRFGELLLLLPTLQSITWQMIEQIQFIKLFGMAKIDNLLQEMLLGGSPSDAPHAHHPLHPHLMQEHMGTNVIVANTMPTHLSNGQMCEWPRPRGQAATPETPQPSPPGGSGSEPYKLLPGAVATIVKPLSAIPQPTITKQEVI
Vif A3G: HIV-1 Vif–A3G interaction blockers – biochemical, TR-FRET, GST-Vif 1-94, biotin-A3G peptide, dose response retest, primary screen (AID 1117319); inhibition, %, or IC50 in µM where a hit was titrated; TR-FRET GST-Vif / biotin-A3G peptide binding; higher % means a stronger effect; test concentration not given here; strong numbers were not always called active; 260,000 tested, 0.57% active;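 active means above the screen mean plus three standard deviations and confirmed in dose response; inconclusive means results disagree or hit not tested in dose response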;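 further: Vif residues 1-94 fused to GST binding biotinylated APOBEC3G peptide 110-148; 0% = full assay without inhibitor and 100% = GST in place of GST-Vif; retest series ran down from 100 µM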
Starred values were filed as active, the others as inactive; i = inactive; ? = inconclusive; nt = not tested or not shown.

Order of values: Ecoli growth	AF4-AF9 inh	FGF22 binding	UCH37 DUB inh	RanGTP-Impb inh	HNF4A DNA FP	Vif A3G
1	CC(C)Cn1c(N)c(C(=O)COC(=O)c2cccc(Cl)c2)c(=O)n(C)c1=O
    0.684	-2.0	i	1.6	5.0	4.4	-1.9%
2	CCn1c(SCC(=O)Nc2ccc(Cl)cc2)nnc1C1CC1
    0.729	2.0	i	5.0	-1.0	0.0	3.3%
3	CCCc1ccc(-c2ccc(C(=O)O)cc2)nc1
    0.621	nt	nt	-0.1	-3.0	0.2	-4.1%
4	COc1ccc([C@H]2C[C@H](O)C[C@@H](CCn3cc(-c4ccccc4)nn3)O2)cc1
    nt	-0.7	i	nt	nt	-0.3	nt
5	Cc1ccc(/C=C2/C(=O)N(c3ccccc3)C(=S)N2C)o1
    0.678	nt	nt	7.5	4.0	4.2	nt
6	O=C1C2ON(c3ccccc3)C(c3ccncc3)C2C(=O)N1c1ccccc1 (centres undefined)
    0.67	nt	nt	2.9	?	-2.7	11.6%
7	Nc1c(C(=O)Nc2ccccc2)sc2nc3c(c(-c4ccco4)c12)CCC3
    0.686	nt	nt	-3.8	-6.0	8.2	13.2%
8	O=C(O)c1cc(Cl)c(Cl)cc1C(=O)Nc1cccc2cccnc12
    0.679	nt	nt	7.6	4.1	-3.6	19.1%
9	O=C(Cn1cc([N+](=O)[O-])cn1)NCc1ccccc1
    0.71	-0.9	i	0.6	6.7	2.1	nt
10	O=C(Nc1nc2cc3c(cc2s1)OCO3)c1ccco1
    0.706	-11.8	i	-26.1	-3.5	0.6	12.8%
11	COc1ccccc1N1CCN(C2CCCN(C(=O)c3cc(C)oc3C)C2)CC1 (centres undefined)
    0.671	4.4	i	-0.8	5.4	0.8	1.4%
12	COc1ccccc1NC(=O)c1cc2c(CO)cnc(C)c2oc1=Nc1cccc(C(N)=O)c1
    0.665	-0.1	i	2.0	-4.2	0.9	nt
13	Cc1[nH]c2ccccc2c1C(O)CN1CCN(c2cccc(C(F)(F)F)c2)CC1 (centres undefined)
    nt	nt	nt	5.2	-2.5	-1.3	31.2%
14	C(=C\c1ccccc1)/CN1CCN(C(c2ccccc2)c2nnnn2C2CCCC2)CC1 (centres undefined)
    nt	8.0	i	nt	nt	0.5	nt
15	CC(C(=O)NCc1ccccc1)n1cc([N+](=O)[O-])cn1 (centres undefined)
    0.674	1.0	i	3.3	-0.6	1.4	-3.9%
16	Cc1cc(OCC(=O)NC2CCN(C)CC2)ccc1[N+](=O)[O-]
    0.727	-1.1	i	3.4	-2.8	1.1	29.2%
17	O=C(Nc1ccc(N2CCCC2)c(Cl)c1)c1cccc(-c2cc3ccccc3oc2=O)c1
    0.679	3.8	i	1.0	2.7	-2.7	nt
18	O=c1nc2ccccc2c2n1CC(CN1CCN(Cc3ccccc3)CC1)N2 (centres undefined)
    0.666	nt	nt	-0.5	1.7	-1.5	11.2%
19	O=C(COC(=O)C1CCC1)NCCc1ccc(Cl)cc1Cl
    0.727	1.4	i	-0.3	3.0	-2.6	nt
20	NC(=O)COC(=O)c1cccc(S(=O)(=O)N2CCCc3ccccc32)c1
    0.657	-1.1	i	2.1	-1.6	-2.7	9.6%
21	CCn1cc(C(=O)N2CCN(c3ccc(OC)cc3)CC2)c(=O)c2cc(S(=O)(=O)N3CCCCC3)ccc21
    0.679	-0.1	i	1.9	-0.2	-0.2	nt
22	CCOc1cccc(CN(CC)CC2CCCN(CCc3cccc(OC)c3)C2)c1O (centres undefined)
    0.652	11.1	i	2.7	9.1	0.7	nt
23	C=CCN1C2CCCC1CC(NC(=O)Nc1cc(C)cc(C)c1)C2 (centres undefined)
    0.66	2.9	i	4.0	-3.2	6.2	nt
24	O=C(CCC(=O)N1CCN(S(=O)(=O)c2ccc(Cl)cc2)CC1)NC1CCCc2ccccc21 (centres undefined)
    0.7	nt	nt	-2.6	4.6	1.7	-1.6%
25	O=c1c(-c2ccc(Cl)cc2)[n+]([O-])c2ccccc2n1O
    0.636	nt	nt	0.8	-61.1	1.4	8.1%
26	CC(C)n1nnnc1SCC(=O)c1c(N)n(C2CC2)c(=O)[nH]c1=O
    0.694	3.2	i	0.5	nt	-3.1	3.5%
27	CCCn1c(NCc2ccc(N(C)C)cc2)nc2ccccc21
    0.684	-0.3	i	4.9	5.3	0.1	15.3%
28	O=C(COc1ccccc1Cl)OCC(=O)N1CCN(S(=O)(=O)c2ccccc2)CC1
    0.676	nt	nt	4.7	-1.9	0.4	-1.4%
29	O=C(O)C/C(=C\c1ccc2c(c1)OCO2)c1nc2ccccc2s1
    0.669	0.2	i	-16.1	2.1	11.4	nt
30	Oc1ccccc1-c1cc(-c2ccc3c(c2)OCCO3)n[nH]1
    0.61	nt	nt	6.0	1.6	0.1	4.4%
31	CCOC(=O)c1c(C)n(C)c2ccc(OC)c(NS(=O)(=O)c3ccc(Cl)s3)c12
    0.714	nt	nt	6.4	0.2	-2.8	0.0%
32	Cc1ccc(SCC(=O)OCC(=O)NCCNC(=O)COC(=O)CSc2ccc(C)c(C)c2)cc1C
    0.668	-12.7	i	1.6	nt	0.4	3.4%
33	COc1ccc(Nc2c(CC(C)C)nc3nc(C)cc(C)n23)cc1
    nt	6.6	i	nt	nt	2.0	nt
34	Cc1cc(NC(=O)CSc2nnc(Cc3ccccc3)n2C)no1
    0.708	nt	nt	3.7	-0.1	-1.4	-1.1%
35	CCCC(=O)Nc1ccccc1Sc1ncnc2scc(-c3ccccc3)c12
    0.68	nt	nt	0.8	-5.0	1.0	-0.6%
36	COc1ccccc1NCc1cc(=O)oc2c(C)c(O)ccc12
    0.683	-1.6	i	-7.3	5.2	-0.5	nt
37	CC1=CC=CN2C1=NC(=O)CC2(C)C(=O)N(CC(=O)NC1CCCC1)c1cc(C)cc(C)c1 (centres undefined)
    0.646	-1.3	i	i	0.9	3.8	-2.5%
38	Cc1ccc2c(c1)c1ccc3c(c1n2C)C(=O)C=CC3=O
    0.665	-0.8	i	-15.6	nt	18.4	3.94µM*
39	Cc1ccc(-n2c(O)c(C=NC3CCS(=O)(=O)C3)c3ccccc3c2=O)cc1 (centres undefined)
    0.725	nt	nt	-15.7	-2.3	-0.1	-1.3%
40	COCCCN1C(=O)C(CC(=O)NCCc2ccccn2)CC(C(=O)N2CCCCCC2)=C1C (centres undefined)
    nt	-5.5	i	nt	nt	-2.9	nt
41	CN1CCc2c(sc3nc(NCCO)n(-c4cccc(Cl)c4)c(=O)c23)C1
    0.665	2.2	i	-22.9	92.2*	7.0	5.6%
42	CC12CC(NC(=O)N1c1cccc(C(=O)N3CCCCC3)c1)c1ccccc1O2 (centres undefined)
    0.67	-1.8	i	8.1	2.5	0.3	nt
43	COc1ccc(C(NC(=O)C2CCN(CCCOc3ccccc3)CC2)c2cccs2)cc1 (centres undefined)
    nt	-0.1	i	nt	nt	2.9	nt
44	O=C(c1cnn2c(C(F)(F)F)cc(-c3ccccc3)nc12)N1CCOCC1
    0.739	-27.7	i	-16.3	3.1	0.6	1.6%
45	CSCCC(NC(=O)COc1ccccc1)C(=O)N(C)Cc1ccc(Cl)cc1Cl (centres undefined)
    0.714	-8.0	i	-1.1	nt	2.9	7.4%
46	c1ccc(C2CC(c3ccccc3)C(c3ccccc3)N2)cc1 (centres undefined)
    0.641	0.8	i	2.9	1.9	-0.2	nt
47	COc1ccc(OC)c(S(=O)(=O)Nc2cccc(O)c2)c1
    0.709	-3.3	i	5.0	2.7	2.5	nt
48	COC(=O)c1ccc(C(=O)OC)c(NC(=O)CSCC(=O)O)c1
    0.683	-1.2	i	2.2	0.6	-4.8	nt
49	CC1CCN(C(=O)CSc2nc3c(cnn3-c3ccccc3)c(=O)[nH]2)CC1
    0.676	8.6	i	2.6	3.9	3.8	-4.9%
50	CC1CCCC(NC(=O)COC(=O)Cc2ccc(Cl)cc2)C1C (centres undefined)
    0.689	-1.2	i	2.4	nt	3.8	nt

(next part)
Order of values: Ecoli growth	AF4-AF9 inh	FGF22 binding	UCH37 DUB inh	RanGTP-Impb inh	HNF4A DNA FP	Vif A3G
51	O=C(Nc1ccc(N2CCCCC2)cc1)c1ccc(F)cc1F
    0.639	-0.3	i	-2.8	-4.4	-0.8	nt
52	CC(=NNC(=O)c1ccc2nc[nH]c2c1)c1ccc(Br)cc1
    0.607	0.4	i	1.4	nt	0.6	1.8%
53	O=C1C(=O)N(O)C2CCCCC2N1O (centres undefined)
    0.719	nt	nt	3.3	-0.2	5.7	nt
54	COc1cc(C(=O)NCCN2CCCC2)cc(OC)c1OC
    0.817	nt	nt	-1.7	-3.2	5.1	-1.0%
55	O=C1CSC(=S)N1N=Cc1c(O)ccc2ccccc12
    nt	0.2	i	nt	nt	93.1*	19.9%
56	O=c1cc(CCl)nc2scc(-c3ccccc3)n12
    0.679	-1.2	i	5.9	2.4	2.7	nt
57	OC(CN1CC=C(/C=C/c2ccc(Br)cc2)CC1)c1ccccc1 (centres undefined)
    0.661	-37.6	i	-1.1	0.5	0.2	nt
58	COc1cccc(C2CC(c3c(F)cccc3Cl)n3nc(N)nc3N2)c1 (centres undefined)
    0.708	nt	nt	-0.2	5.2	0.5	-0.1%
59	O=C(Nc1ccon1)c1ccc(Cl)s1
    0.61	nt	nt	1.8	4.9	2.0	5.6%
60	Cc1ccc(S(=O)(=O)Cn2nnnc2C(C(C)C)N2CCN(c3nc4ccccc4s3)CC2)cc1 (centres undefined)
    0.8	nt	nt	1.6	0.9	-0.1	-10.6%
61	COc1ccccc1NS(=O)(=O)c1ccc(NN=C2CCCCC2)c([N+](=O)[O-])c1
    0.698	nt	nt	5.0	9.4	-2.0	15.6%
62	Cc1ccc(C)c(NC(=O)COC(=O)CCC(=O)c2cccs2)c1
    0.717	-2.2	i	3.4	2.6	-1.9	-6.6%
63	COc1ccc2[nH]c3c(=O)n(Cc4ccc(C(=O)NCC5CCCO5)cc4)c(=S)[nH]c3c2c1 (centres undefined)
    0.646	-1.0	i	-18.0	-2.8	-4.5	-8.6%
64	CC(=O)Nc1ccc(NS(=O)(=O)c2ccc3ccccc3c2)cc1
    0.727	nt	nt	0.2	-0.7	-2.4	0.0%
65	CCCc1nc2ccc(C)cn2c1Cc1ccccc1
    nt	3.9	i	nt	nt	4.5	nt
66	CN(CC(=O)N1CCc2ccccc21)S(=O)(=O)c1cccc2cccnc12
    0.73	0.7	i	4.3	0.5	-0.2	-7.7%
67	CC(=O)Oc1ccc(C(=O)OCC(=O)c2c(N)n(C)c(=O)n(C)c2=O)cc1OC(C)=O
    0.704	1.9	i	3.7	2.6	-2.2	?

Source: PubChem BioAssay (several laboratories)

A portion of the library; rates above refer to the full screens.
